From PubChem BioAssay
PV pol inh: poliovirus RNA polymerase inhibition | P03300 | poliovirus polymerase elongation, fluorescence polarization; stronger effect = lower value | % elongation, % (compound at 16.7 µg/mL) | 150,000 compounds, 0.66% hits | AID 588519; in the data active = % elongation below about 90%; note: some results filed as inactive read as strong as hits
Target sequence (P03300 1749-2209 limits assumed): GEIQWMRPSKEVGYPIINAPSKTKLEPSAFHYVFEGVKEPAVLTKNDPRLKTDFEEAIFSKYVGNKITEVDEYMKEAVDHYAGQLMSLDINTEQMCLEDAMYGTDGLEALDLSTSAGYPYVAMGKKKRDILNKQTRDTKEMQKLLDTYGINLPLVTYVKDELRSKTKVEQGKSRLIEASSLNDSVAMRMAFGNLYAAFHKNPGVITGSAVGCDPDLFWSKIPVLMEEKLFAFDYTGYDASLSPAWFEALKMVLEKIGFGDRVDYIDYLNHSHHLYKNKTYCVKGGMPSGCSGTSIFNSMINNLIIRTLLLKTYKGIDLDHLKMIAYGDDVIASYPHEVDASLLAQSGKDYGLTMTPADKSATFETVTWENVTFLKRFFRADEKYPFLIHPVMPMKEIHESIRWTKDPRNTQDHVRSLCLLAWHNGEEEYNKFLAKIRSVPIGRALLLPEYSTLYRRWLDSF
PV pol inh intensity: second read-out of PV pol inh, no call of its own (marks repeat the call); % elongation; measured here: total intensity read-out; formula for this scale not given here;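 total fluorescence in place of polarization; lower means less elongation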
Starred values were filed as active, the others as inactive. These rows are one share of the data (hit frequency here may not be typical).

The line under a structure holds: PV pol inh | PV pol inh intensity
#1 Cc1ccc(CNC(=O)Cn2c(=O)n(-c3ccc(C)c(F)c3)c(=O)c3sc4ccccc4c32)cc1
  99 | 101
#2 Cc1ccc2oc(-c3cccc(NC(=O)c4ccc(N5CCC(C)CC5)c([N+](=O)[O-])c4)c3)nc2c1
  101 | 99
#3 CCCS(=O)(=O)Nc1cccc(-c2cn3ccsc3n2)c1
  113 | 94
#4 CCOc1ccc(CCNC(=O)c2cc3n(n2)CCCN(Cc2ccc(C)cc2)C3=O)cc1OCC
  109 | 91
#5 Cc1ccc(-c2n[nH]c3c2C(c2cccs2)N(c2ccc(Cl)cc2)C3=O)cc1 (stereo not given)
  126 | 107
#6 CCc1ccccc1NC(=O)N1CCN(Cc2nc3ccc(C)cc3o2)CC1
  107 | 110
#7 Cc1ccc(-n2c(=O)[nH]c3cc(C(=O)NCCc4ccccc4)ccc3c2=O)cc1
  105 | 105
#8 COCCN(CCOC)C(=O)c1cc2c(=O)n3ccccc3nc2n1C
  110 | 111
#9 COc1ccc(C(=O)Nc2cc(-c3nc4ncccc4o3)ccc2C)cc1Br
  106 | 111
#10 CN(CCCNC(=O)c1cc2c(Cl)nc3ccccc3c2s1)Cc1ccccc1
  91 | 101
#11 Cc1c(C(=O)Nc2cccc(C(F)(F)F)c2)sc2nc[nH]c(=O)c12
  101 | 109
#12 OCCCc1nc2n(n1)C(c1cccc(Cl)c1)C=C(c1ccccc1)N2 (stereo not given)
  103 | 112
#13 CCCn1cc(S(=O)(=O)c2cccc(Cl)c2)c(=O)c2cc(F)c(N3CCN(CC)CC3)cc21
  106 | 101
#14 O=C(CSCc1cccc(F)c1)NCc1ccccc1
  107 | 108
#15 CCN(C(=O)c1sc2nc3n(c(=O)c2c1C)CCCC3)c1ccccc1F
  107 | 106
#16 CCOC(=O)c1c(S(=O)(=O)N2CCCC(C(=O)N3CCN(c4ccc(F)cc4)CC3)C2)c(C)n(C)c1C (stereo not given)
  102 | 110
#17 Cc1c(C(=O)N(Cc2ccc(Cl)cc2)CC2CCCO2)oc2ccc(F)cc12 (stereo not given)
  110 | 110
#18 Cc1ccccc1CSc1cn(CC(=O)N2CCCCCC2)c2ccccc12
  118 | 120
#19 COc1ccc(C(=O)NCCn2cc(SCC(=O)Nc3cccc(C)c3)c3ccccc32)cc1
  103 | 104
#20 Cc1ccc2c(CNCCc3ccccc3)c(C(=O)O)n(Cc3ccccc3C)c2c1
  106 | 99

17 entries from above, as a markdown table:
| item | SMILES | PV pol inh | PV pol inh intensity |
| --- | --- | --- | --- |
| 4 | CCOc1ccc(CCNC(=O)c2cc3n(n2)CCCN(Cc2ccc(C)cc2)C3=O)cc1OCC | 109 | 91 |
| 5 | Cc1ccc(-c2n[nH]c3c2C(c2cccs2)N(c2ccc(Cl)cc2)C3=O)cc1 (stereo not given) | 126 | 107 |
| 6 | CCc1ccccc1NC(=O)N1CCN(Cc2nc3ccc(C)cc3o2)CC1 | 107 | 110 |
| 7 | Cc1ccc(-n2c(=O)[nH]c3cc(C(=O)NCCc4ccccc4)ccc3c2=O)cc1 | 105 | 105 |
| 8 | COCCN(CCOC)C(=O)c1cc2c(=O)n3ccccc3nc2n1C | 110 | 111 |
| 9 | COc1ccc(C(=O)Nc2cc(-c3nc4ncccc4o3)ccc2C)cc1Br | 106 | 111 |
| 10 | CN(CCCNC(=O)c1cc2c(Cl)nc3ccccc3c2s1)Cc1ccccc1 | 91 | 101 |
| 11 | Cc1c(C(=O)Nc2cccc(C(F)(F)F)c2)sc2nc[nH]c(=O)c12 | 101 | 109 |
| 12 | OCCCc1nc2n(n1)C(c1cccc(Cl)c1)C=C(c1ccccc1)N2 (stereo not given) | 103 | 112 |
| 13 | CCCn1cc(S(=O)(=O)c2cccc(Cl)c2)c(=O)c2cc(F)c(N3CCN(CC)CC3)cc21 | 106 | 101 |
| 14 | O=C(CSCc1cccc(F)c1)NCc1ccccc1 | 107 | 108 |
| 15 | CCN(C(=O)c1sc2nc3n(c(=O)c2c1C)CCCC3)c1ccccc1F | 107 | 106 |
| 16 | CCOC(=O)c1c(S(=O)(=O)N2CCCC(C(=O)N3CCN(c4ccc(F)cc4)CC3)C2)c(C)n(C)c1C (stereo not given) | 102 | 110 |
| 17 | Cc1c(C(=O)N(Cc2ccc(Cl)cc2)CC2CCCO2)oc2ccc(F)cc12 (stereo not given) | 110 | 110 |
| 18 | Cc1ccccc1CSc1cn(CC(=O)N2CCCCCC2)c2ccccc12 | 118 | 120 |
| 19 | COc1ccc(C(=O)NCCn2cc(SCC(=O)Nc3cccc(C)c3)c3ccccc32)cc1 | 103 | 104 |
| 20 | Cc1ccc2c(CNCCc3ccccc3)c(C(=O)O)n(Cc3ccccc3C)c2c1 | 106 | 99 |

Continuation.
The line under a structure holds: PV pol inh | PV pol inh intensity
#21 COc1ccccc1NC(=O)c1cc2c(=O)n(Cc3cccs3)ccc2nc1C
  107 | 110
#22 CCOc1cccc(C(=O)N(Cc2ccc(N(C)C)cc2)CC2CCCO2)c1 (stereo not given)
  112 | 108
#23 O=C(NC1CCCCCC1)c1ccc2c(c1)sc1nc(-c3ccccc3)cn12
  107 | 109
#24 CCc1nc(-c2cc(S(=O)(=O)N3CCN(c4ccccc4F)CC3)ccc2OC)no1
  107 | 105
#25 Cc1cccc(CN2C(=O)c3ccccc3Sc3ccc(C(=O)NC4CCCCC4)cc32)c1
  113 | 102
#26 Cc1c(C(=O)N2CCN(c3ccccc3)CC2)sc2nc3n(c(=O)c12)CCC3
  99 | 106
#27 Cc1c(C(=O)N2CCN(c3ccc(F)cc3)CC2)sc2nc3n(c(=O)c12)CCC3
  110 | 112
#28 Cc1nn(-c2ccc(F)cc2)c(-n2cccc2)c1C(=O)N1CCCCC1C (stereo not given)
  107 | 113
#29 O=S1(=O)c2ccccc2N(Cc2ccc(Cl)cc2)c2ccccc21
  106 | 93
#30 CCOc1ccc(NCc2cccn2-c2nnc(N3CCC(C(=O)NCCOC)CC3)s2)cc1
  113 | 112
#31 Cc1ccc(CNC(=O)Cn2ccn(-c3cccc(Cl)c3)c(=O)c2=O)cc1
  109 | 114
#32 CCN1CCN(c2csc3ccc(Br)cc3c2=O)CC1
  109 | 109
#33 Cc1ccccc1-c1nnc(SCC(=O)N(C)C2CCCCC2)o1
  107 | 111
#34 COc1ccc(NC(=O)Cn2c(=O)n(CC3CCCO3)c(=O)c3ccccc32)c(OC)c1 (stereo not given)
  105 | 115
#35 COc1cccc(N2CCN(C(=O)c3cccc(NC(=O)c4nsc5ccccc45)c3)CC2)c1
  105 | 112
#36 CC(=O)c1ccc(NC(=O)CCc2c(C)nc3cc(-c4ccc(Cl)cc4)nn3c2C)cc1
  106 | 108
#37 CCN(CC)CCCNC(=O)CN1C(=O)COc2ccc(S(=O)(=O)N3CCC(C)CC3)cc21
  100 | 100
#38 Cc1cccc(N2CCN(S(=O)(=O)c3ccc4[nH]c5c(c4c3)CCCCC5)CC2)c1C
  110 | 115
#39 Cc1ccc(CCNC(=O)Cn2nc(-c3ccc(C)cc3)ccc2=O)cc1
  102 | 106
#40 c1cnc(N2CCN(c3ncc4c(n3)CCNC4)CC2)nc1
  110 | 101
#41 Cc1cccc(NC(=O)CSc2nnc(C)c(=O)[nH]2)c1
  109 | 106
#42 COc1ccc(C(=O)Nc2nc(-c3ccc(Br)cc3)ns2)cc1
  109 | 108
#43 CCOC(=O)c1ccc(NC(=O)Cn2ncc3c(C)n(Cc4ccccc4F)c(C)c3c2=O)cc1
  109 | 115
#44 CC(C)Oc1cccc(C(=O)Nc2ccc(-c3nc4cc(Cl)cc(Cl)c4o3)cc2)c1
  101 | 101
#45 Cc1nc2ccccc2n2c(-c3ccccc3)c3c(=O)n(C)c(=O)n(C)c3c12
  103 | 109
#46 Cc1ccc(OCC(=O)NCC(=O)OCc2cc(=O)n3nc(C)sc3n2)cc1
  109 | 108
#47 Cc1ccc(NC(=O)C2CCN(S(=O)(=O)c3c(C)noc3/C=C/c3cccs3)CC2)cc1F
  109 | 112
#48 O=C(NCCc1ccccc1)c1cnc2sc(N3CCCCC3)nn2c1=O
  96 | 105
#49 O=S(=O)(Nc1ccc(F)c(C(F)(F)F)c1)c1ccc(N2CCCCS2(=O)=O)cc1
  111 | 98
#50 COc1ccc(S(=O)Cc2ccc(C(=O)N3CCN(c4cccc(C)c4C)CC3)o2)cc1 (stereo not given)
  100 | 97
#51 CCOc1ccc(C2CC(=O)c3c([nH]c(C(=O)OC4CCC(C)CC4)c3C)C2)cc1 (stereo not given)
  106 | 105
#52 Cc1ccc2ncc(S(=O)(=O)c3ccccc3)c(N3CCCCC3C)c2c1 (stereo not given)
  104 | 112
#53 Cc1ccc(CNC(=O)c2sc3ncnc(N(C)C4CCCCC4)c3c2C)cc1
  106 | 114
#54 CCOC(=O)C1CCCN(S(=O)(=O)c2cc(-c3onc(C)c3C)ccc2OC)C1 (stereo not given)
  111 | 110
#55 COc1ccc(-c2noc(CSc3nnc(-c4ccncc4)n3-c3cccc(C)c3)n2)cc1OC
  109 | 113
#56 CN(C)c1ccc(CNC(=O)CCCN2C(=O)CCn3nc(-c4cccn4C)cc32)cc1
  102 | 106
#57 CCC1CCCCN1C(=O)c1ccc2c(c1)N(Cc1cccc(Cl)c1)C(=O)c1ccccc1S2(=O)=O (stereo not given)
  110 | 114
#58 CC1CCn2c(nc3cc(C(=O)NCc4ccc(F)cc4)ccc32)C1 (stereo not given)
  108 | 109
#59 Fc1ccccc1Nc1c2c(nc3ccccc13)CCC2
  107 | 110
#60 CC1Cc2cc(S(=O)(=O)NCc3ccccc3Cl)ccc2N1C(=O)C1CCC1 (stereo not given)
  99 | 102
#61 COc1ccc(OC)c(NC(=O)Cc2c(C)n(C(=O)c3ccc(Cl)cc3)c3ccc(OC)cc23)c1
  109 | 109
#62 Cc1ccccc1CNC(=O)CCC(=O)N1CCSc2ccccc21
  101 | 104
#63 COC(=O)c1scc(-c2ccc(C)cc2)c1S(=O)(=O)N1CCN(c2ccccc2)CC1
  99 | 109
#64 COc1ccc(NC(=O)Cn2c(=O)n(-c3ccc(C)cc3)c(=O)c3c2c2cc(C)ccc2n3C)cc1
  106 | 107
#65 CCOC(=O)c1ccc(NC(=O)CSc2cc(-c3ccccc3)nc(C)n2)cc1
  105 | 105
#66 CCCCN(C)C(=O)C1CCCN(c2ncnc3onc(-c4ccc(F)cc4)c23)C1 (stereo not given)
  104 | 106
#67 O=C(NCc1ccccc1Cl)c1ccc2nc(Cc3ccccc3)oc2c1
  107 | 114
#68 CCOC(=O)CC(NC(=O)Cn1nnc(-c2ccccc2Cl)n1)c1ccc(OC)cc1 (stereo not given)
  108 | 112
#69 O=C(CCSCc1cnn(-c2ccccc2)c1-n1cccc1)NCc1ccccc1Cl
  104 | 110
#70 Cn1c(=O)c2c(nc(SCC(=O)Nc3ccc(F)cc3F)n2Cc2ccccc2)n(C)c1=O
  101 | 99
#71 CCCC1=Nc2cc(C(=O)N3CCC(C)CC3)ccc2Sc2ccc(C)cc21
  100 | 92
#72 CCNc1nc2c(c(=O)n(C)c(=O)n2C)n1Cc1ccc(F)cc1
  101 | 87
#73 CCOC(=O)c1sc(N2C(=O)c3oc4cc(C)c(C)cc4c(=O)c3C2c2cccc(O)c2)nc1C (stereo not given)
  102 | 105
#74 CCn1nc(C)c2c(-c3ccccc3)cc(=O)n(C(C)C(=O)NCc3ccc(C)cc3)c21 (stereo not given)
  100 | 96
#75 O=C(c1ccccc1)N1CCc2cc(CNS(=O)(=O)c3ccccc3Cl)ccc21
  107 | 108
#76 CCc1ccc(NC(=O)CN2CCCN(Cc3cccc(Cl)c3)S2(=O)=O)cc1
  102 | 108
#77 CCOc1cc(C2c3c(-c4ccccc4O)n[nH]c3C(=O)N2Cc2cccnc2)ccc1O (stereo not given)
  107 | 112
#78 Cc1ccc(CN2CCC(CNc3ncnc4onc(-c5ccc(Cl)cc5)c34)CC2)cc1
  107 | 112
#79 COc1ccccc1NC(=O)C1=C(C)Nc2nc(SCc3ccccc3)nn2C1c1ccncc1 (stereo not given)
  107 | 111
#80 COCCCn1c(=N)c(S(=O)(=O)c2ccccc2)cc2c(=O)n3cc(C)ccc3nc21
  108 | 112

(further entries)
The line under a structure holds: PV pol inh | PV pol inh intensity
#81 COc1ccc(NC(=O)CN2CCN(C3CCCCC3)C(=O)C2=O)cc1
  102 | 100
#82 CCOC(=O)C1CCCN(Cc2cn3c(-c4ccc(Br)cc4)nnc3s2)C1 (stereo not given)
  106 | 104
#83 Cc1cc(C)c2c(=O)cc(C(=O)Nc3sc4c(c3C(=O)NCc3ccccc3)CCCC4)oc2c1
  108 | 113
#84 Cc1ccc2c(=O)cc(C(=O)Nc3nc4ccc(Cl)cc4s3)oc2c1
  107 | 104
#85 COc1cccc(N2CCN(Cc3nnc(-c4ccc5c(c4)OCO5)o3)CC2)c1
  101 | 102
#86 Cc1cccc(-n2ccnc2SCC(=O)Nc2cccc3ccccc23)c1
  108 | 112
#87 O=C(Nc1ccc(Cl)c(-c2nc3ccccc3o2)c1)c1ccc(-c2cccc([N+](=O)[O-])c2)o1
  104 | 104
#88 CCN(Cc1ccccc1)C(=O)CCS(=O)(=O)c1ccc2c(c1)CCN2C(C)=O
  106 | 109
